Beta cell apopt – inhibitors of cytokine-induced beta cell apoptosis, primary screen, luminescence; protection from apoptosis, % (concentration not given with the values); 0.8% of 300,000 active; INS-1E cytokine-induced death, ATP luminescence, 48 h; percent of positive-control rescue, neutral wells zero;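 active = all replicates at 75% or more, or half of them and the mean; inconclusive = half reach 75% but not the mean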;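 note: 0% = cytokine-treated negative control wells and 100% = positive control rescue; higher means more ATP so stronger rescue from cytokine killing; wells of about 40 µL received 100 nL stock; the first replicate is given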
MLL AF4-AF9 inh – inhibitors of AF4 peptide binding to AF9, primary screen, biochemical, AlphaScreen, biotin-AF4 peptide, FLAG-AF9, single point. Protein AF-9 (Homo sapiens), P42568. inhibition, % at 10 µM. 0.47% of 350,000 active. AID 651704, 2012;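 active = every replicate reaching a set inhibition limit, whatever the replicate mean, cut at about 25% in these data; inconclusive = mean inhibition reaches that limit but some replicates miss it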;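 note: 0% = plate neutral control median and 100% = total signal loss; the record names both 10 and 1 µM as test concentration; the first replicate is given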
Calb FLC – C. albicans growth inhibition with fluconazole, primary screen, CaCi-2 strain, Alamar Blue fluorescence; C. albicans CaCi-2 (fluconazole-resistant clinical isolate) + fluconazole, 48 h; growth inhibition, % (test concentration not listed); 0.57% of 300,000 active; AID 1979, 2009;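 active = most replicates above 75%; inconclusive = exactly half above 75%; inactive = most below 75%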;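 note: all wells also contain fluconazole at 8 µg/ml as a sub-toxic cotreatment; 0% = median of DMSO wells and 100% = median of geldanamycin control wells; wells of about 8 µL received 7.5 nL stock; the first replicate is given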
RanGTP-Impb inh – inhibitors of RanGTP-importin-beta interaction, primary screen, biochemical, FRET, CFP-Ran, YFP-importin-beta, homogeneous. inhibition, % (concentration not given with the values). cell-free CFP-Ran/YFP-importin-beta FRET ratio. Ran GTPase (GTP-bound) - importin-beta complex. 1.1% of 300,000 active. AID 2216, 2009;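 active = most replicates above 15%; inconclusive = exactly half above 15%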;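 note: 0% = DMSO wells and 100% = Ran loaded with GDP instead of GTP; wells of about 40 µL received 100 nL stock; the first replicate is given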
Vif TR-FRET – inhibitors of Vif binding to APOBEC3G peptide, primary screen, biochemical, TR-FRET, GST-Vif 1-94, biotin-A3G peptide, dose response retest (AID 1117319) | TR-FRET GST-Vif / biotin-A3G peptide binding; higher % means a stronger effect; test concentration not given here; strong numbers were not always called active | 0.57% of 260,000 active | Virion infectivity factor (Human immunodeficiency virus type 1 group M subtype B (isolate … | inhibition, %; hits with a dose series show IC50 in µM;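 active = above the screen mean plus three standard deviations and confirmed in dose response; inconclusive = results disagree or hit not tested in dose response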;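 note: Vif residues 1-94 fused to GST binding biotinylated APOBEC3G peptide 110-148; 0% = full assay without inhibitor and 100% = GST in place of GST-Vif; retest series ran down from 100 µM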
LANA-H2B inh – blockers of LANA interaction with H2A/H2B – biochemical, FP readout, HTS, primary screen; cell-free LANA-H2A/H2B peptide, fluorescence polarization; inhibition, % (test concentration not listed); Protein LANA1 (Human herpesvirus 8 type P (isolate GK18)), Q9QR71; 0.6% of 320,000 active; in the data active = inhibition mostly above about 10%, no sharp cut-off; inactive = mostly below about 6.7%;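 note: stock transfer was 7.5 nL into about 10 µL; 0% = median of vehicle wells and 100% = median of positive control wells; one replicate is shown; the record names a cut of 25% in any replicate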
Target sequence (Q9QR71 whole entry, looked up): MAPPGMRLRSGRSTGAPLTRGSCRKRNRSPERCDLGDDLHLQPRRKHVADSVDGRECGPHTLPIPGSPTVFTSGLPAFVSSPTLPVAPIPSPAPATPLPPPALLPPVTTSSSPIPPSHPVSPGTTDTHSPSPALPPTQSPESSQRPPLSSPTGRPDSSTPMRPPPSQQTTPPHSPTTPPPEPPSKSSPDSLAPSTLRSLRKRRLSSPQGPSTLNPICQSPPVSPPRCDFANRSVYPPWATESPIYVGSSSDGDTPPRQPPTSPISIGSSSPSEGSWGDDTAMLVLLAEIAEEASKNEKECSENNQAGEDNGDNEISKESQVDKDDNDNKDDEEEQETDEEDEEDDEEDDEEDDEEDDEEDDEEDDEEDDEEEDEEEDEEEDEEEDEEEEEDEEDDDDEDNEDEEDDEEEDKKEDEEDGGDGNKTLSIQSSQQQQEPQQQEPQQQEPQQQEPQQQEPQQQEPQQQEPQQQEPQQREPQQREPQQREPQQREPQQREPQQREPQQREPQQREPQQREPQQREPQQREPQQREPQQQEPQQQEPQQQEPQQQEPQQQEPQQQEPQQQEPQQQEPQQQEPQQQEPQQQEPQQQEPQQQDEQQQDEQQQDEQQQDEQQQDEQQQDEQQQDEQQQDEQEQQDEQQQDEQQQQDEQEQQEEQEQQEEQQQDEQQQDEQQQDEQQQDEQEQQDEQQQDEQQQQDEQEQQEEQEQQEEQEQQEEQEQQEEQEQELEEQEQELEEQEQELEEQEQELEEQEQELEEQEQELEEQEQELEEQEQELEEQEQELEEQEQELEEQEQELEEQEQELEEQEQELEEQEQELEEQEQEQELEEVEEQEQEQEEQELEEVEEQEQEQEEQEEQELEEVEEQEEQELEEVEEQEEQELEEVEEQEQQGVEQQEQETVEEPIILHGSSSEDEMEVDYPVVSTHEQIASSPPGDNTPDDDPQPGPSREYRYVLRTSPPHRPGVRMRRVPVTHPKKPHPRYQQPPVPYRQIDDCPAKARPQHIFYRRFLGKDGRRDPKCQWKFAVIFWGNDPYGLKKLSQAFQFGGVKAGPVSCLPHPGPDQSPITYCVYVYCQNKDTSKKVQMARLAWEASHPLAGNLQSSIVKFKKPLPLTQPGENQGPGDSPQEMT
T cruzi repl – inhibitors of intracellular T. cruzi growth, primary screen, luminescence, NIH3T3 host cells. inhibition, % (no concentration beside the values). 1.4% of 300,000 active. T. cruzi beta-gal in NIH3T3, 90 h;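 active = mean inhibition across valid replicates above about 55%, limit read from the data; inconclusive = mean below that limit but half or more replicates reach it; inactive = mean below it, under half of replicates reach it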;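 note: signal also drops with host cell toxicity which is not excluded here; 0% = plate median of DMSO wells and 100% = zero luminescence signal; higher percent means less beta-gal luminescence so fewer parasites; stock transfer was 50 nL into about 50 µL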
A1 inh – caspase 3/7 activation in MEF A1-2A-BIM cells, primary screen, A1 inhibitor project, cell-based, luminescence, HTS | 0.066% of 330,000 active | AID 2462, 2010 | caspase activation, % (concentration not given with the values) | Caspase-Glo 3/7 luminescence, 3 h; percent of clofoctol response, vehicle zero;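 active = over half of replicate activation scores above 10%, or exactly half above 10 with the replicate mean above 10; inconclusive = replicate mean below 10 yet half the replicates above 10; inactive = over half of replicates below 10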;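 note: wells of about 30 µL received 50 nL stock; many hits fall short of the cut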
Numbers without * were called inactive; ? = inconclusive; . = no result given; & = joins results of further samples.

SMILES	Beta cell apopt	MLL AF4-AF9 inh	Calb FLC	RanGTP-Impb inh	Vif TR-FRET	LANA-H2B inh	T cruzi repl	A1 inh
O=C(NCCO)C(O)C(O)C(=O)NCCO (stereo not given)	.	-0.4	-0.9	?	-7.3%	-2.6	1.1	-0.2
O=C(CN(c1ccc(F)cc1)S(=O)(=O)c1ccc2c(c1)OCCO2)Nc1ccc2c(c1)OCO2	0.0	.	-3.0	5.3	0.9%	1.5	24.7	2.9
CC1=C(C(=O)Nc2ccccc2)C2(CCCCC2)C(C#N)=C(S)N1	-1.7	.	2.0	2.9	12.7%	-0.1	4.8	-0.1
CC(C)c1cccc(C(C)C)c1OCCCCN1CCCC1	.	.	-11.0	-1.0	-7.5%	-1.9	41.8	1.4
C=CCn1c(=S)[nH]c2scc(-c3cccs3)c2c1=O	.	0.6	-13.5	?	-99.9%	.	.	.
N#Cc1ccc(OCC(=O)N2CCN(c3ccc(C(F)(F)F)cn3)CC2)cc1	1.0	0.3	.	.	-7.5%	5.5	.	0.4
Nc1ccc(C(=O)OC2CCOC2=O)cc1[N+](=O)[O-] (stereo not given)	-2.3	.	20.7	-4.0	-1.3%	0.3	1.4	0.9
Cc1ccc(NC2CCCN(C(=O)c3cccc4nccnc34)C2)cc1C (stereo not given)	1.8	-0.9	-0.9	?	.	-3.2	-8.7	0.8
Nc1n[nH]c(-c2cccc([N+](=O)[O-])c2)n1	6.3	.	92.6*	5.2	?	-2.5	10.1	-0.8
COc1ccc(-c2nc(-n3c(C)c(C(C)=O)c(C(C)=O)c3C)sc2C)cc1	1.0	.	2.2	1.2	-21.6%	0.9	0.8	0.3
O=C(c1ccc(Cl)cc1)N1CCn2c1nc1ccccc12	-4.5	-0.9	6.5	-4.3	.	-1.0	-10.5	-1.2
COc1cc(-c2noc(C3CCCN(C(=O)c4ccccc4)C3)n2)cc(OC)c1OC (stereo not given)	-0.2	-1.3	-3.2	0.7	-1.8%	1.7	14.2	0.4
Cc1ccc2[nH]c(=O)c(CN(Cc3ccccc3)C(=S)NCCCN(C)C)cc2c1	-12.8	4.2	30.1	-0.1	-5.5%	2.2	16.0	1.1
Cc1cc(C)n(CCN(C)C(=O)CCc2nnc(CCC3CCCCC3)o2)n1	5.8	0.0	-7.6	-2.7	6.8%	-0.2	8.1	-1.6
CC(=O)c1c(C)oc2ccc(N(C(C)=O)S(=O)(=O)c3ccc(Br)cc3)cc12	39.1	-0.4	21.3	-1.6	.	-1.7	0.6	0.6
O=C(NCCCN1CCCC(O)C1)c1cc(COc2ccc(F)cc2F)on1 (stereo not given)	-2.5	-0.8	-4.4	1.3	.	-3.4	-2.7	-0.9
COc1ccccc1NC(=O)c1ccccc1Nc1ccccc1	-7.4	-0.2	18.2	3.0	3.9%	3.8	4.1	-0.2
CCn1cnc2cc(NC(=O)c3ccco3)ccc21	2.2	.	-6.2	3.9	.	0.5	-0.4	-0.2
CCOC(=O)[C@H]1[C@H]2COc3ccc(Cl)cc3[C@H]2N2C(=O)CNC(=O)[C@@]12C	-4.9	-7.9	.	.	.	-1.8	.	-0.1
O=C(Nc1ccccc1C(=O)NCc1ccco1)Nc1cccc2ccccc12	11.0	-1.7	19.8	0.9	.	0.8	-17.8	1.1
CC12CC3CC(C)(C1)CC(C(=O)NC(=S)N1CCOCC1)(C3)C2	0.2	.	10.8	-0.6	-3.4%	1.2	-7.6	0.0
O=C(NNC(=O)c1ccc(-c2ccc([N+](=O)[O-])cc2)o1)c1ccncc1	2.3	1.2	.	.	.	-3.3	.	0.4
Cn1c(=N)n(CC(=O)c2ccc(F)cc2)c2ccccc21	.	0.5	-29.9	-11.9	-8.0%	6.4	-8.9	-2.1
c1ccc(-c2nnn(C34CC5CC(CC(C5)C3)C4)n2)cc1	.	.	-10.5	-5.1	1.6%	-1.7	13.4	0.0
Cc1cc2c(=O)n(CC(=O)NCC(=O)Nc3ccc(C(C)C)cc3)cnc2s1	-4.8	1.9	-24.0	3.3	.	3.0	-8.0	-0.4
The listing continues.
SMILES	Beta cell apopt	MLL AF4-AF9 inh	Calb FLC	RanGTP-Impb inh	Vif TR-FRET	LANA-H2B inh	T cruzi repl	A1 inh
COC(=O)C1C(=O)C(C(=O)/C=C/c2ccccc2)C(=O)CC1(C)C (stereo not given)	.	-0.3	-19.4	-0.8	-5.3%	6.8	2.9	-1.2
COc1cccc(CN(C)CC(=O)Nc2sc3c(c2C#N)CCC3)c1OC	9.9	-0.6	15.1	3.5	0.6%	1.0	21.3	-0.6
O=C(c1c(F)cccc1F)N1CCCC(c2nc(-c3cccs3)no2)C1 (stereo not given)	-2.4	-0.9	-1.3	-1.3	-2.1%	10.8	1.7	1.2
COc1ccc(NC(=O)CSc2nnc(-c3ccccn3)n2-c2ccccc2)cc1OC	-5.0	.	-6.6	-1.9	-11.9%	-3.0	-14.9	0.1
O=C1CCCN1CN(C(=O)c1ccccc1)c1ccc(F)cc1	-0.5	.	-16.7	?	0.9%	3.3	-9.7	0.1
COc1cc2c(cc1OC)CN(C(=O)/C=C/c1ccc([N+](=O)[O-])cc1)CC2	-4.8	3.7	2.6	4.0	.	-2.9	-7.5	1.6
O=C(Cn1ncc2c1-c1ccccc1OC2)Nc1nc2ccccc2s1	-0.8	-1.7	-9.1	1.0	1.8%	-1.8	-4.5	0.2
CC(=O)N1c2ccccc2Nc2ccccc21	-5.4	.	0.9	-0.2	8.0%	-4.2	13.5	-0.9
Nc1cc(N)nc(SCC(=O)Nc2ccc3c(c2)OCO3)n1	2.0	-2.9	5.4	-5.6	.	5.0	-11.4	0.4
CN(C)C=Nc1nonc1N	-6.0	.	12.0	1.9	1.4%	-1.6	-4.3	-0.4
CC(C)(C)C(=O)CN1C(=O)C2(OCCO2)c2ccccc21	-1.4	.	-0.8	3.0	8.8%	6.6	-7.1	-0.1
O=C(Nc1nnc(SCc2ccccc2F)s1)C1=COCCO1	.	-0.7	28.6	-1.3	15.4%	6.0	-9.7	?
CCn1cc(CN2CCC(n3nccc3NC(=O)C(OC)c3ccccc3)CC2)cn1 (stereo not given)	-4.8	2.2	5.5	-1.2	0.7%	-2.0	3.4	0.6
CCN(CC)c1ccc(C=Nc2ccc(OC)c(S(=O)(=O)N3CCOCC3)c2)c(O)c1	-11.0	9.6	.	.	-8.9%	2.8	.	-0.7
O=C(CSc1ccccc1F)NCCCN1CCCC1=O	.	-1.5	-9.8	4.1	3.1%	1.1	-1.7	-0.1
CS(=O)(=O)c1ccc2nc(NC(=O)c3cc(-c4ccccc4)nn3-c3ccccc3)sc2c1	4.7	0.2	26.0	-2.5	-328.6%	0.8	15.3	1.1
COc1cc(NC(=O)Cc2cccs2)ccc1-n1cnnn1	4.6	.	-3.4	-3.3	-2.9%	-2.2	0.5	0.7
CCc1noc(C)c1C(=O)Nc1nnc(CC(C)C)s1	-2.7	-18.1	20.8	5.9	-5.2%	10.3	-4.0	-1.0
CCCCC1CCC(C(=O)NCC(c2ccco2)N2CCOCC2)CC1 (stereo not given)	4.6	1.1	.	-4.8	.	-3.3	-2.4	0.1
COc1ccc(OC)c(-c2csc(CCn3nc(C)cc3C)n2)c1	0.0	-0.5	21.5	-1.2	.	0.6	.	1.5
Cc1ccc(C)c(OCC(=O)Nc2ccc(C(=O)O)cc2NC(=O)COc2cc(C)ccc2C)c1	4.1	0.0	-2.9	-1.4	.	-3.1	-20.1	0.3
Nc1nonc1-n1nnc(C(=O)N/N=C/c2ccccc2Cl)c1-c1ccccc1	4.9	-0.5	0.8	1.7	.	-3.7	-14.6	-0.5
CC1(C)CC(=S)Nc2ccccc2S1	-7.2	.	-16.2	4.0	-2.0%	3.2	-29.0	0.7
C1=C(c2ccccc2)Nc2nnnn2C1c1cccs1 (stereo not given)	-5.0	.	-0.8	-19.6	6.3%	7.2	5.4	0.1
O=C(Nc1ccc(S(=O)(=O)Nc2ccccn2)cc1)c1ccc(Cl)cc1Cl	0.2	0.1	1.1	2.1	.	0.5	-0.4	0.5
The list goes on.
SMILES	Beta cell apopt	MLL AF4-AF9 inh	Calb FLC	RanGTP-Impb inh	Vif TR-FRET	LANA-H2B inh	T cruzi repl	A1 inh
COc1ccc(CCNS(=O)(=O)c2ccc3oc(C(=O)O)c(C)c3c2)cc1OC	.	.	-0.8	3.5	26.6%	-1.7	6.8	-0.6
CCOc1cc(C2NC(=O)NC(O)(C(F)(F)F)C2C(=O)c2ccc(OC)cc2)ccc1O (stereo not given)	-1.9	.	-1.4	5.4	5.1%	2.6	-9.5	0.4
O=C(CN1C(=O)NC2(CCCCCC2)C1=O)NCc1ccc(Cl)cc1	-0.1	-2.4	.	.	.	1.6	.	-0.9
Cc1cc(N2CCCCC2)nc(N)n1	0.4	-0.8	-8.6	4.3	-1.6%	-3.7	3.6	0.4
CCOc1cc(/C=C(\C#N)C(=O)Nc2ccccn2)ccc1O	-5.0	0.5	-1.7	0.8	.	4.3	0.0	-0.3
Oc1ccc2ccccc2c1CNc1ccc(Br)cn1	-2.7	-1.8	15.8	-1.1	-2.3%	0.6	0.6	0.7
CCOC(=O)CC1=C(C(=O)OCC)C(c2ccc(C)o2)C(C#N)=C(N)O1 (stereo not given)	-2.1	.	-1.8	12.3	?	1.0	-3.2	0.9
Cc1cccc(NC(=O)CN2C(=O)CCS(=O)(=O)c3ccccc32)c1C	-5.4	-7.4	12.9	-1.3	.	3.7	-7.1	-1.1
Clc1nc(CN2CCCCC2)nc2sc3c(c12)CCC3	-6.3	1.2	-14.2	-6.7	.	0.5	-19.6	-0.6
O=C(Nc1ccnn1C1CCN(C(=O)Cc2cccc(Cl)c2)CC1)C1CC1	-2.0	-2.5	-3.5	5.9	.	1.1	-2.2	0.4
CC1CN(C(=O)c2ccccc2NS(=O)(=O)c2cccc([N+](=O)[O-])c2)CC(C)O1 (stereo not given)	-6.4	-2.6	16.8	-0.6	8.4%	3.6	-14.6	-0.3
OCCC1CN(Cc2ccc(C(F)(F)F)cc2)CCN1Cc1ccccc1 (stereo not given)	-7.3	3.4	-23.6	1.9	2.7%	-3.9	10.2	-0.4
O=C(N/C(=C/c1ccccc1)C(=O)N1CCCCC1)c1ccco1	-11.7	-1.4	4.4	1.1	.	-11.7	-6.7	1.2
O=C(CCCn1c(=O)c2sccc2n(CC(=O)OCc2ccccc2)c1=O)NCc1ccco1	-3.9	.	-9.8	-3.8	-2.1%&-5.6%	-1.6	4.7	1.1
Cc1ccc(C)c(NC(=O)CCC(=O)N/N=C/c2ccc3c(c2)OCO3)c1	-3.9	-8.9	-5.1	-0.8	?	0.8	4.0	0.4

Compound activity (PubChem)
